HIV Env fusion = blocks HIV Env-driven cell-cell fusion. HeLa-JRFL Env/CEM21 cell fusion, luciferase. inhibition, % at 12.3 µM. hit rate 1.1% among 360,000. AID 651610;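 active = mean replicate inhibition score of at least 50 and every replicate individually at or above 50; inconclusive = only one of the two criteria met; inactive = mean below 50 and not all replicates reaching 50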;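 note: 0% = plate neutral controls and 100% = maraviroc near 300 nM; one replicate is shown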
PABP polyA inh = blocks human PABP binding to poly(A) RNA; inhibition, % at 35 µM; P11940; fluorescence polarization; AID 2014; hit rate 1% among 290,000;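 active = 50% or more with normal probe brightness, or confirmed in later tests; inconclusive = above 50% with abnormal brightness, or retests that disagree; inactive = below 50% or failed in later tests; about a fifth of its hits are not listed in these tables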;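 note: calls also rest on retests at 20 µM and on dose response follow-up; controls were probe without protein and protein plus probe with vehicle; some compounds called inactive have numbers as strong as hits; many hits fall short of the cut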
Target sequence (P11940 whole entry, looked up): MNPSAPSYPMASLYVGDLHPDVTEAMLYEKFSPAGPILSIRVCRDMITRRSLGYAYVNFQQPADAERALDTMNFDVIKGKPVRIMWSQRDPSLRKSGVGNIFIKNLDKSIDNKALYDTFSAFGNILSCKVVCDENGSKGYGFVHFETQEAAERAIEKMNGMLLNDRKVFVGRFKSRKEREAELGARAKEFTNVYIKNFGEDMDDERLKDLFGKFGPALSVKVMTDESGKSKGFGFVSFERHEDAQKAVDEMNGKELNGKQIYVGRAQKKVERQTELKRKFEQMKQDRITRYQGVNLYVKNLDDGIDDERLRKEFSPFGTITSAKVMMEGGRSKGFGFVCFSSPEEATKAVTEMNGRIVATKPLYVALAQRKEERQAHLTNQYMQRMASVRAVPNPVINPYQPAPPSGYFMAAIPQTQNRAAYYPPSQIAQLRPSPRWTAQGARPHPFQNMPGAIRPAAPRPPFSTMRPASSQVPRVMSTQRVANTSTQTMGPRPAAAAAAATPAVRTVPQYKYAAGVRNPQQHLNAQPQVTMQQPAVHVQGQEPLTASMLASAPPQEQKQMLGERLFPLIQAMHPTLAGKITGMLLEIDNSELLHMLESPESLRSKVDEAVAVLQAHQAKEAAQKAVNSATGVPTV
Rce1 inhib = blocks yeast Ras-converting enzyme; hit rate 0.27% among 290,000; calls only; Q03530; yeast membranes, quenched prenylated peptide cleavage fluorescence;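 active = fall in fluorescence gain of 50% or more versus controls, with final raw signal at or below 3038400; inconclusive = same 50% fall but final raw signal above 3038400; inactive = fall in fluorescence gain under 50%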;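 note: plate controls were neutral control wells for no effect and wells lacking membranes for full effect; tested at 10 µM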
CSC inhib = cancer stem cell inhibition; inhibition, % at 7.5 µM; cancer stem cell-like cells viability, luminescence; hit rate 1.1% among 300,000;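 active = mean at 75% or more and at least half the replicates too; inconclusive = mean and replicates disagree; tested in HMLE shEcad cells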;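 note: 0% = median of negative and 100% = median of positive control wells; the first replicate is given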
MT1-MMP act inh = blocks activation of human MT1-MMP. P50281. hit rate 0.061% among 360,000. HT1080 RFP-PRO-GFP cells, GFP/RFP ratio fluorescence, overnight; percent of plate control window, DMSO zero. GFP/RFP ratio change, % at 20 µM;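 active = GFP/RFP ratio change of at least 30% with cell ATP level not reduced by more than half and red fluorescence within 50% of control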; note: strong numbers were not always called active
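system = RFP-PRO-GFP reporter HT1080 cells | dosing = 20 µM single dose, 1% DMSO | timing = overnight cell settling, then overnight compound exposure, 37 °C, 5% CO2 | read-out basis = GFP/RFP fluorescence ratio | controls = DMSO and RFP-L50D-GFP cell wells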
UUG fidelity = yeast start codon fidelity modulation; activity score, % at 18.7 µM; S. cerevisiae UUG-firefly luciferase reporter, luminescence/redox ratio; hit rate 0.13% among 350,000; AID 602363;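 active = replicate mean at a twofold rise or more, about +100% in these data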;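 note: firefly luciferase made from a UUG start codon reports start codon fidelity; reporter light over untreated wells divided by growth signal over untreated wells; some hits fall short of that in this replicate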
eIF4H FP inh = inhibitors of RNA binding by human eIF4H. eIF4H fluorescence polarization binding assay. inhibition, % at 35 µM. hit rate 0.94% among 290,000. AID 2012;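 active = 50% or more with normal probe brightness, or confirmed in later tests; inconclusive = above 50% with abnormal brightness, or retests that disagree; inactive = below 50% or failed in later tests; about a fifth of its hits are not listed in these tables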;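 note: calls also rest on retests at 20 µM and on dose response follow-up; 0% = protein and probe with vehicle and 100% = probe without protein; strong numbers were not always called active; many hits fall short of the cut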
eIF4H FP inh retest = further read-out of eIF4H FP inh, marked with its call; inhibition, %; compound at 20 µM; confirmation average;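 mean of two retest wells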
PABP polyA inh retest = recorded beside PABP polyA inh, whose call it bears; inhibition, %; compound at 20 µM; confirmation repeats;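 mean of two retest wells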
MT1-MMP act inh RFP = further read-out of MT1-MMP act inh, marked with its call; RFP signal change, %; measured here: RFP expression control read;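 0 = vehicle wells; hits needed this value within 50% of zero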
The depositor's hits bear a star; i = inactive; ? = inconclusive; . = not tested or not shown; & = joins results of further samples; [ ] = another dose, or the depositor's remark.

SMILES	HIV Env fusion	PABP polyA inh	Rce1 inhib	CSC inhib	MT1-MMP act inh	MT1-MMP act inh RFP	UUG fidelity	eIF4H FP inh	others
Cc1c(NC(=O)c2cccnc2Cl)c(=O)n(-c2ccccc2)n1C	.	-1.6	i	-8.8	-0.7	2.6	-15.7	-3.6
C/C=C/c1ccc(OCCn2cncn2)c(OC)c1	-84.9	19.3	.	-0.1	-2.0	-2.6	-15.7	-6.6
COC(=O)[C@]1(Cc2ccccc2)N[C@H](CN(C)C(=O)c2ccc(F)cc2)[C@@H]2C(=O)N(C)C(=O)[C@@H]21	-53.3	.	.	.	4.5	7.4	6.4	.
CCc1cccc(CC)c1NC(=S)NCCc1c(C)[nH]c2ccccc12	-32.2	0.6	i	14.7	-10.0	-9.3	-25.2	0.1
Cc1cc(-c2csc(NC(=O)c3cccc(S(=O)(=O)N(C)C)c3)n2)c(C)n1-c1ccccc1	5.9	1.4	i	-5.8	-16.9	5.7	.	18.7
COc1cc(C(=O)Nc2ccccc2N2CCCCC2)cc(OC)c1OC	35.5	-7.5	i	53.6	4.1	-9.1	-12.6	-1.9
C#CCOCCOCCOCCNc1nc(N2CCN(C(=O)[C@H](CC(N)=O)n3cc([C@@H](N)C(C)C)nn3)CC2)nc(N2CCN(C(=O)[C@H](CC(N)=O)n3cc([C@@H](N)C(C)C)nn3)CC2)n1	-21.4	.	.	-8.7	-2.9	3.2	7.7	.
CC(C)[C@@H](C(=O)NCC1CCC(C(=O)O)CC1)n1nnc2ccccc2c1=O (some centres undefined)	3.2	-0.6	i	-10.6	1.3	2.4	-35.3	0.7
COc1ccccc1Nc1cc(C(=O)NCc2cccnc2)c2ccccc2n1	-15.2	-8.2	i	4.8	2.0	-3.8	.	10.6
Brc1ccccc1C1N=C(c2ccccc2)NO1 (centres undefined)	-78.0	6.6	i	-11.3	1.3	1.6	-9.8	-8.2
COc1cccc(C=Nc2ccccc2C(=O)Nc2nccs2)c1OC	.	-1.4	i	11.8	-4.3	-2.8	2.2	-0.6
Cc1ccc(-n2nc3cc(C)c(NC(=S)NC(=O)/C=C/c4ccco4)cc3n2)cc1	.	0.3*	i	-0.3	-9.1	-2.3	.	67.5*	eIF4H FP inh retest=53.3*;PABP polyA inh retest=60.5*
CCCCOc1ccccc1NC(=O)CC1SC(=NCC)N(CC)C1=O (centres undefined)	.	13.4	i	.	2.2	-2.0	-8.2	-2.2
O=C(Cn1nnc2c(cnn2-c2ccc(F)cc2)c1=O)OC1CCCCC1	43.4	3.7	i	-23.8	-1.2	-10.0	-8.1	-1.3
CCOC(=O)c1[nH]c2ccccc2c1NC(=O)CN1CCCCC1	.	-10.4	i	-5.4	4.5	1.6	-14.0	-4.4
Cc1cc(C)nc(SCC(=O)Nc2ccc3c(c2)OCO3)n1	3.5	3.7	i	17.6	-2.1	0.2	-6.3	-7.4
CCN(CC)CCNC(=O)c1cn(CCOC)c(=O)c2c1c1ccccc1n2C	-11.5	4.4	i	-1.4	0.4	0.9	20.8	-21.9
Cc1ccc(NC(=O)c2ccc(NS(=O)(=O)c3cccc4cccnc34)cc2)cc1	.	-5.9	i	2.8	0.6	-1.7	-7.3	-13.4
CCCCCCCc1ccc(-c2ccc(O)cc2)nc1	-30.5	-11.2	i	85.0*	2.3	0.9	.	-5.7
O=C(NC1CCCc2ccccc21)C1CCC(CNS(=O)(=O)c2cccc3nsnc23)CC1 (centres undefined)	-10.4	6.9	i	-12.7	0.8	-6.6	-17.4	-1.0
COC(=O)CCC(=O)c1oc2ccccc2c1NC(=O)CCCN1C(=O)c2ccccc2C1=O	22.0	1.6	i	2.6	6.0	2.6	-13.1	-3.5
COc1ccccc1CNC(=O)C(C)Oc1ccccc1 (centres undefined)	-4.3	-3.8	i	1.6	-2.2	-2.6	2.8	-11.6
O=C(Nc1ccc(F)cc1)c1ccc2c(c1)S(=O)(=O)N=C1CCCCCN12	-1.3	.	.	-6.9	0.2	-4.0	-4.4	.
Fc1ccc(F)c(CNc2ncnc3cc(Cl)ccc23)c1	8.8	-0.7	i	-1.1	-0.2	-16.7	-10.4	-1.8
CC(C)Cc1nnc(NC(=O)CSc2nc(-c3ccccc3)cc(=O)[nH]2)s1	2.9	3.8	i	-1.4	2.1	-1.4	.	3.2
Cc1cccc2c1cnn2C(=O)Nc1ccc(Br)cc1F	-3.5	7.3	i	-8.3	-1.0	-3.7	-10.8	1.8
COc1ccc(/C=C2\CCCC3C2=NN(C(=O)c2scnc2C)C3c2ccc(OC)cc2)cc1 (centres undefined)	.	-15.6	i	-14.0	-11.9	-10.1	.	3.7
COc1ccc(C(=O)NC2CCN(C(=S)Nc3cccc(C)c3)CC2)cc1	.	9.3	i	10.4	2.2	-0.7	-12.3	3.1
O=C1CCN(C(=O)CSc2ccc(Cl)cc2)N1	-2.7	-0.8	i	-9.9	-1.3	1.4	.	-0.7
C=C(Cl)COC(=O)C1C2C=CC(C2)C1C(=O)O (centres undefined)	.	0.6	i	.	8.6	9.8	-15.2	-3.3
Clc1ccc(OCCCCSc2ncccn2)cc1	-17.2	119.8	i	12.4	1.8	7.6	.	127.2	eIF4H FP inh retest=-0.7;PABP polyA inh retest=-3.5
CCc1nc2ccc(C(=O)N3CCN(C(=O)c4ccco4)CC3)cn2c1N(C)C(=O)C1CCCCC1	-20.3	.	.	.	-0.6	2.8	15.4	.
Cc1ccc(C(=O)OCC(=O)NC2CCCC2)cc1C	16.9	7.7	i	-2.8	-0.8	2.6	-3.2	-1.0
O=C(Nc1ccc(F)cc1)c1cccnc1Oc1ccccc1	-4.8	7.6	i	-20.7	0.6	1.5	6.0	-1.4
COc1ccc(CN2CCNC(=O)C2CC(=O)NCc2csc(C(C)C)n2)c(OC)c1 (centres undefined)	-36.2	-3.7	i	1.4	.	.	.	-0.3
Cc1cccc(OCCNc2ncccc2[N+](=O)[O-])c1	-135.8	.	.	.	1.3	6.2	-4.4	.
CCOC(=O)C1[C@H]2C(=O)N(CCCOC)C[C@]23C=C[C@H]1O3 (some centres undefined)	-35.0	-4.1	i	-1.2	-4.6	2.1	-11.1	-1.2
C[C@]12c3[nH]c4ccc(Cl)cc4c3CCN1C(=O)[C@@H](CC(=O)NCc1ccco1)C[C@@H]2C(=O)N1CCOCC1	-69.7	.	.	.	2.4	1.9	-4.5	.
COc1cccc(C(C)NC(=O)c2c(F)cccc2Cl)c1 (centres undefined)	4.3	37.4	i	-2.3	2.9	0.5	.	1.8
CC(=O)N/N=C\c1cccc(OC/C=C/c2ccccc2)c1	-7.7	-5.4	i	-1.7	2.4	3.2	-10.1	9.2
CCc1cccc(C)c1NC(=O)CSc1nnc(Cc2csc(C)n2)o1	3.8	.	i	-3.7	6.0	0.9	-13.2	.
Cc1nnc2c(NC(C)C)nc3ccccc3n12	.	6.9	i	2.7	9.3	11.4	-10.6	-0.6
COc1ccc(OCc2nc3ccc(S(=O)(=O)Nc4ccccc4Cl)cc3[nH]2)cc1	.	-5.2	i	-14.6	3.4	-4.7	.	-2.6
O=C(CSCC(=O)Nc1ccc2ccccc2c1)NCc1ccccc1	14.7	-1.5	i	-4.9	7.7	1.2	-11.0	-2.3
CCc1ccc(S(=O)(=O)Nc2nnc(N)s2)cc1	-31.3	4.5	i	-28.8	0.0	-0.6	-8.4	-20.9
C[C@H](CO)N1C[C@H](C)[C@@H](CN(C)C(=O)Nc2cccc3ccccc23)OCCCC[C@H](C)Oc2ccc(NS(=O)(=O)c3cn(C)cn3)cc2C1=O	-7.6[16.7 µM]	.	.	.	2.1	3.5	7.7&-9.9	.
O=C1N[C@@H](Cc2c[nH]c3ccccc23)COC(=O)[C@@H](Cc2ccc(F)cc2)CC/C=C/C[C@@H]1CC(=O)N(CCO)Cc1ccccc1	-7.7	.	.	.	-8.4	-19.9	-12.7	.
Cc1ccc(NS(=O)(=O)c2cc(C(=O)NCc3ccccn3)ccc2Cl)cc1	.	-0.9	i	.	-0.3	-3.6	-21.9	-6.1

The last 2 compounds of the part above open the next one:
SMILES	HIV Env fusion	PABP polyA inh	Rce1 inhib	CSC inhib	MT1-MMP act inh	MT1-MMP act inh RFP	UUG fidelity	eIF4H FP inh	others
O=C1N[C@@H](Cc2c[nH]c3ccccc23)COC(=O)[C@@H](Cc2ccc(F)cc2)CC/C=C/C[C@@H]1CC(=O)N(CCO)Cc1ccccc1	-7.7	.	.	.	-8.4	-19.9	-12.7	.
Cc1ccc(NS(=O)(=O)c2cc(C(=O)NCc3ccccn3)ccc2Cl)cc1	.	-0.9	i	.	-0.3	-3.6	-21.9	-6.1
Fc1ccc(Nc2cccc3nccnc23)cc1	-1.2	3.0	i	.	1.8	-2.1	-17.1	-2.9
CCN(CC)C(=O)Cn1cc(C(=O)C(=O)NCc2cccs2)c2ccccc21	4.7	-7.7	i	-10.7	1.0	5.9	.	3.5
CSc1ccc(S(=O)(=O)N(C)Cc2ccccc2)cc1	0.1	-7.3	i	-4.9	-7.6	-0.8	.	-4.5
c1cn(CC2(Cn3ccnc3)COC2)cn1	.	3.8	i	-2.9	3.4	2.8	-12.9	-1.8
CCOc1ccc(/C=N/NC(=O)c2nnn(-c3nonc3N)c2-c2cccs2)cc1	3.2	-2.3	i	-18.6	3.2	1.6	-16.3	-3.0
Cc1ccc2nc(Nc3ccccc3)c(/C=N/O)c(=O)n2c1	.	12.2	i	5.4	-4.8	0.8	4.4	-2.7
COc1cccc(OC)c1C(=O)NNC(=O)c1cccnc1	-0.9	-0.6	i	-17.4	1.4	-0.9	-20.8	-0.3
O=[N+]([O-])c1cc(-c2nc(-c3ccncc3)no2)cc([N+](=O)[O-])c1	.	1.8	i	.	-2.5	-4.3	.	-10.8
CC1=CC(C)(C)NC(=S)N1c1ccc(Cl)cc1	0.5	.	.	.	-0.9	-8.1	-10.7	.
O=C(O)c1ccc(CSc2nnc(-c3ccco3)o2)cc1	-0.5	-2.1	i	5.2	0.8	2.1	-11.2	-7.2
CCCCCC(=O)Nc1c(-c2ccc(OC)cc2)c(=O)c2ccccc2n1C	.	-6.7	i	-4.6	3.9	0.3	-16.6	-9.9
O=C(/C=C/c1ccccc1)Nc1cccc(C(=O)N2CCCC2)c1	-2.1	.	.	.	3.5	0.6	-7.0	.
CN(C)c1ccc(Nc2nc(-c3cccnc3)cs2)cc1	.	-5.4	i	6.5	-7.4	-9.3	.	-9.1
Cc1noc(C)c1S(=O)(=O)N1CCCC(C(=O)N2CCc3ccccc3C2)C1 (centres undefined)	-24.2	2.3	i	31.0	-0.4	-6.5	17.0	7.9
C/C(=N\NC(=O)c1ccc(N(C)C)cc1)c1ccc(C)cc1C	4.9	0.9	i	3.6	7.4	8.5	.	3.3
O=C(COc1ccc(Cl)cc1Cl)Nc1ccc(CN2CCCCC2)cc1	3.1	-6.4	i	58.7	-1.8	-2.3	-12.7	-7.1
COc1cc(OC)c(-c2c3cc(O)c(=O)cc-3oc3cc(O)c(O)cc23)cc1OC	.	6.4	.	-3.5	-23.4	82.2	.	?
O=C(c1ccc(-c2nc3ccccc3s2)s1)N1CCOCC1	?	4.7	.	23.7	.	.	.	-1.1
COC(OC)c1ccc(C#N)c(SCc2ccccc2)n1	8.5	-4.9	i	-3.1	-1.4	-0.4	-7.4	-7.1
CCC/C=C1/CCCOC(C(=O)NCc2ccc(C)o2)(C(F)(F)F)C1 (centres undefined)	22.3	.	.	12.9	3.4	1.1	0.0	.
